Screening results deposited in PubChem BioAssay by National Center for Advancing Translational Sciences (NCATS).
TRPML1 ag – agonists of human TRPML1 channel | Q9GZU1 | TRPML1-expressing cells, Ca2+ dye fluorescence, FDSS; host cell line not named in the record; reference of the full effect not given here | activation, % (concentration not given with the values) | actives 0.12% (n = 410,000) | AID 624414; in the data active = activation above about 50%; inconclusive = about 30% to 50%; inactive = below about 30%; note: 0% is about no effect; the text of the record puts the active cut at 80%
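In this qHTS format, compounds were pin-transferred onto Ca8-dye-loaded TRPML1-DL cells induced with Tet overnight, and intracellular Ca2+ fluorescence was recorded kinetically for 110 s after a 10 s baseline. A subsequent 4uM final 54-4 (EC80) addition followed by a second 110 s read served as the antagonist phase.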
D2 PAM – potentiates the human D2 dopamine receptor allosterically | DiscoveRx D2 beta-arrestin cells, luminescence, 90 min; 100% = 57 uM dopamine signal | P14416 | potentiation, % (concentration not given with the values) | AID 624464 | actives 0.23% (n = 360,000); active = potentiation of 50% or more; inconclusive = 30% to 50%; inactive = 30% or less;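 note: compound concentration not given in the record; tested on top of an EC20 dose of dopamine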
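PathHunter D2 cells, attached overnight at 37 deg C, received compound in DMSO plus dopamine at EC20 (50 nM final) for 90 min at 37 deg C. Beta-arrestin recruitment was read as luminescence after 1 h with detection reagent at ambient temperature.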
CtBP-E1A blk – CtBP/E1A binding inhibition; AlphaScreen GST-E1A/His-CtBP binding, 1536-well; stronger effect = lower value; control for the full effect not named in the record; activity change, % (no concentration beside the values); actives 0.49% (n = 340,000); in the data active means activity change below about -65%; inconclusive means about -30% to -65%; inactive means above about -30%; note: % is set by controls: 0 for no effect and ±100 for the full control effect; compound concentration not given in the record
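GST-E1A and His-tagged CtBP (125 nM each as 5X stock) were preincubated with pin-transferred compound for 2 h at 37 °C in the dark, then glutathione donor and nickel acceptor beads were added for 1 h before AlphaScreen reading.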
Six1-Eya2 inh – blocks human Six1 binding to Eya2. activity change, % (concentration not given with the values). Q15475+O00167. actives 0.56% (n = 360,000). AlphaScreen GST-Six1/His-Eya2 binding, biochemical; stronger effect = lower value; control for the full effect not named in the record; in the data active = activity change below about -65%; inconclusive = about -30% to -65%; inactive = above about -30%; note: % is set by controls: 0 for no effect and ±100 for the full control effect
Target sequence (O00167 whole entry, looked up): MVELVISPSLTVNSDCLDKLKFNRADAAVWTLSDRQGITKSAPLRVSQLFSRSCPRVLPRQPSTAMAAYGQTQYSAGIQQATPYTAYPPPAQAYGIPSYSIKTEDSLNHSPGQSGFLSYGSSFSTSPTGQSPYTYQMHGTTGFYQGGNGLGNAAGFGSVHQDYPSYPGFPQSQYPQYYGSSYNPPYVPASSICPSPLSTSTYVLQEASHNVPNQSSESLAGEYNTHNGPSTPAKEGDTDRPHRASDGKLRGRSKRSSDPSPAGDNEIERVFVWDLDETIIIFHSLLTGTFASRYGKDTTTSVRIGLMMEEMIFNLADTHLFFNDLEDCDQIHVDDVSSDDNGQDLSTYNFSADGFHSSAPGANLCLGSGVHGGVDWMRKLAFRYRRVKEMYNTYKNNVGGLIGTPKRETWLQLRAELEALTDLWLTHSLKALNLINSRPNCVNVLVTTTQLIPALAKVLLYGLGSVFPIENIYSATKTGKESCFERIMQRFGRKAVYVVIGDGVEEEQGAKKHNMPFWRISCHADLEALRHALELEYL
Target sequence (Q15475 whole entry, looked up): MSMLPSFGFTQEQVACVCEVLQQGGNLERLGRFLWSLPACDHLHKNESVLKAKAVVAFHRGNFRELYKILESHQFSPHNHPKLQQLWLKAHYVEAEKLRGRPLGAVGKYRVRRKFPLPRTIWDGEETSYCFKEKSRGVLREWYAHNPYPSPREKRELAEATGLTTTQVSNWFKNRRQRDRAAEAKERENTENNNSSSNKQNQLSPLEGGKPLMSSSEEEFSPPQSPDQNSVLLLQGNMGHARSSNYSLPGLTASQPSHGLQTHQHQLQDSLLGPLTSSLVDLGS
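AlphaScreen luminescence read after one hour at 37 °C in darkness. Pin-transferred compounds met GST-Six1 and His-Eya2 protein (5X stock 250 nM/500 nM) plus glutathione donor and Ni-chelate acceptor beads (5X, 50 ug/mL).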
D2 ag – agonists of human D2 dopamine receptor (beta-arrestin); AID 624465; actives 0.084% (n = 360,000); activation, % (no concentration beside the values); DiscoveRx PathHunter D2 beta-arrestin, luminescence, 90 min; 100% = 57 uM dopamine signal; P14416; in the data active = activation above about 40%; inconclusive = about 15% to 40%; inactive = below about 15%; note: compound concentration not given in the record; the text of the record calls up to 30% inactive
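DiscoveRx PathHunter D2 beta-arrestin cells (2,100/well) attached overnight, then compound-stimulated 90 min at 37 C in HBSS/10 mM HEPES/0.1% Tween-20 buffer; beta-galactosidase complementation read by luminescence after 1 h at ambient temperature. Dopamine 57 uM final (EC100) as control.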
PINK1 modulator – modulators of PINK1 expression. actives 0.2% (n = 410,000). AID 624263. PINK1 immunofluorescence, high-content cytometry, 24 h. Potency, µM (doses to about 76.6 µM), inactives show at the highest dose activation (PINK1 increase), usual class: activators; active = well fitted activation curve with a large enough effect; inconclusive = small, poorly fitted or top-dose-only effect; inactive = flat fitted curve, though single readings scatter; cell line not stated here;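 note: potency is the fitted concentration of half-maximal effect; % of control where 0% means no effect; nearly all actives have a fitted effect of over 65% in size; a mitochondrial uncoupler was the plate control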
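Compound titrations (5 concentrations, 24 h) on a stable cell line; DMSO and CCCP controls. Endpoint: fixed-cell PINK1 immunofluorescence with mitochondrial, cell and nuclear markers, scanned by microplate cytometer.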
Starred values were filed as active, the others as inactive; ? = inconclusive; . = no result given; & = joins results of further samples; [ ] = remark or other dose.

Screens in order: D2 PAM, PINK1 modulator, CtBP-E1A blk, D2 ag, Six1-Eya2 inh, TRPML1 ag
#1 Cc1ccccc1/C=C1\SC(=S)N(/N=C/c2cc([N+](=O)[O-])ccc2O)C1=O
  -10, 3.3%, -92*, -6.4, ?, 0.9
#2 COC(=O)c1ccc(CSc2nnc(-c3ccccc3)n2C)o1
  -9, -2.4%, ., -4.6, 4, 0.6
#3 O=C1NC[C@H](CCCCN2CCN(CCC3CCCCC3)C(=O)C2=O)N(CCc2ccccc2)C1=O
  ., 0.0%, 5, ., -9, -0.9
#4 CCOc1cc(CNC(CC)CO)ccc1OCC(=O)Nc1cccc(C(F)(F)F)c1 (stereo not drawn)
  -17, 3.4%, 9, -6.3, -1, 1.0
#5 N#C/C(=C/c1ccc2c(c1)OCO2)C(=O)Nc1ccc(O)cc1
  -11, 4.3%, -24, 2.9, -5, -0.4
#6 CS(=O)(=O)N1CCN(c2nc3ccc(Cl)cc3s2)CC1
  -10, 3.1%, 7, -2.8, 9, 0.2
#7 CCOC(=O)c1c(-n2cccc2)sc2c1CCCC2=O
  -1, 1.3%, -9, 2.0, -14, 1.4
#8 Cc1nc(SCC(=O)Nc2ccc(CN3CCCC3)cc2)c2c(C)c(C)sc2n1
  -28, 3.2%, -17, -5.5, ?, 0.3
#9 COc1ccc(-c2nc(N)ncc2-c2csc(C)n2)c(O)c1
  8, -5.8%[38.3 µM], -15, -1.0, ?, -0.4
#10 CC1=NN(c2cccc([N+](=O)[O-])c2)C(=O)C1
  -20, -0.5%, 0, -7.4, 27, -0.2
#11 COc1ccc(NS(=O)(=O)c2cc3c(cc2C)N(C(C)=O)CCO3)cc1
  -2, -0.1%&-1.0%, 0, 0.1, 3, -0.1&0.6
#12 C=CCC(NCc1ccccc1)c1ccc(Cl)cc1 (stereo not drawn)
  -3, 12%, 21, -2.4, 46, 1.5
#13 COc1cc2ccc(-c3ccc4ccccc4n3)cc2cc1OC
  3, 9.2%, 1, -0.1, 10, 0.0
#14 COc1cccc(NC(=S)N2CCn3c(nc4ccccc43)C2)c1
  -2, 0.9%, 1, -2.3, -5, 0.5
#15 Cc1nn(CC(=O)Nc2ccc(C(C)C)cc2)c(C)c1[N+](=O)[O-]
  3, 0.3%, ., -4.9, 1, 2.7
#16 CCCn1nc(C(=O)NNC(=O)c2cc(S(=O)(=O)NC)ccc2Br)c2ccccc2c1=O
  -1, -1.3%, -20, -3.5, -2, 4.0
#17 Cc1ccccc1S(=O)(=O)NC(=O)C1(C)CCN1C(=O)Cc1cccs1 (stereo not drawn)
  -4, 0.1%, 5, -3.5, 7, 0.0
#18 CC1Cc2c([nH]c3ccccc23)C2c3ccccc3CN12 (stereo not drawn)
  -4, -0.6%, -1, 1.3, -12, -1.1
#19 C/C(=C(\C#N)C(=O)NCCN1CCOCC1)N(C)C
  -4, ., -7, 0.2, -1, 1.1
#20 Cc1cc(C(=O)N2CCN(c3ccc(F)cc3)CC2)on1
  -8, 3.9%, 2, -5.6, 0, 0.2
#21 COC(=O)c1c(O)cc(C(C)(C)C)n(-c2ccc(F)cc2)c1=O
  23, -2.9%, 10, -1.2, -2, 0.6
#22 COc1ccc(C(=O)N2CCCC(CNC(=O)c3ccc(F)cc3)C2)cc1OC (stereo not drawn)
  -17, 0.2%, -20, -1.3, 5, -0.5
#23 CC(=O)C[C@@H](O)CC(=O)[C@@H]1OC(=O)[C@@H](C)CCCCc2ccccc21
  ., -0.7%, 10, 2.4, 8, -0.8
#24 Cc1ccc(S(=O)(=O)NNC(=O)Cc2cccn2C)cc1
  -9, -0.5%, 11, 2.2, -11, 3.6
#25 Cc1c(S(=O)(=O)N2CCN(c3cccc(Cl)c3)CC2)c(=O)n(C)c(=O)n1C
  -2, -1.0%, 7, -4.5, 4, 0.3
#26 O=C(/C=C\c1ccccc1)NCC(=O)N/N=C/c1ccc(O)cc1O
  -39, -1.5%, -97*, 0.5, -75*, 0.3
#27 Cc1cc(NC(=O)CCC(=O)N(C2CC2)C(C(=O)NC(C)(C)C)c2ccccc2Cl)no1 (stereo not drawn)
  -7, 1.2%, 0, -7.6, -21, -1.5
#28 Cc1ccc(NC(=O)COc2ccccc2CNC(C)(C)CC(C)(C)C)cc1
  -7, -3.1%, 10, -4.0, 5, 1.1
#29 COc1ccc(CCN2CC(C(=O)NCc3cnn(C(C)C)c3)CCC2=O)cc1 (stereo not drawn)
  0, 2.4%, -6, -2.2, 3, 0.2
#30 NCCCC[C@H]1CNC(=S)N1CCCCC1CCCCC1
  -11, -2.2%, -10, -3.4, -1, -0.1
#31 Cc1cc(Oc2ccccc2)nc(SCC(=O)Nc2ccc(Cl)cc2Cl)n1
  -1, -2.5%[38.3 µM], 4, 1.5, 4, 3.6
#32 CCOC(=O)C1CCCN(C(=O)c2sc3nc(C)nc(N4CCOCC4)c3c2C)C1 (stereo not drawn)
  0, 0.1%[38.3 µM], 6, -1.3, 3, 1.3
#33 O=C(Cn1c(=O)oc2ccccc21)NCCc1ccccc1
  -4, -0.8%, -4, -1.1, -20, -1.6
#34 CCCCC(=O)Nc1cc(-c2nc3ncccc3o2)ccc1C
  -6, 2.1%, -5, 1.6, 4, 0.0
#35 O=C1c2ccccc2C(=O)c2[nH]cnc21
  -15, -1.5%, ., -5.6, -19, 3.8
#36 c1ccc(C2=Nn3c(nnc3-c3cccs3)SC2)cc1
  -11, 1.0%, -21, -0.2, -23, 0.2
#37 Cc1ccc(-n2nnnc2-c2cnc3ccc(Cl)cc3c2-c2ccccc2)cc1
  -8, 8.8%, 2, -3.4, 1, 1.5
#38 Cc1cccc(C(C)(C)C)c1OCCN1CCCC1
  -14, -1.5%, -14, 3.4, -13, -0.9
#39 CCC(C(=O)NCc1ccc(F)cc1)n1nc(C)n2c(cc3occc32)c1=O (stereo not drawn)
  -4, 1.8%, 6, 1.6, 1, -0.8
#40 Cc1ccccc1CS(=O)(=O)CCC(=O)O
  -5, 0.2%, 1, -0.6, 2, 0.2

CtBP-E1A blk, hit marks shown above.
#	Structure	D2 PAM	PINK1 modulator	CtBP-E1A blk	D2 ag	Six1-Eya2 inh
1	Cc1ccccc1/C=C1\SC(=S)N(/N=C/c2cc([N+](=O)[O-])ccc2O)C1=O	-10	3.3%	-92*	-6.4	?
26	O=C(/C=C\c1ccccc1)NCC(=O)N/N=C/c1ccc(O)cc1O	-39	-1.5%	-97*	0.5	-75*

Next section.
Screens in order: D2 PAM, PINK1 modulator, CtBP-E1A blk, D2 ag, Six1-Eya2 inh, TRPML1 ag
#41 CCOC(=O)Cc1c[nH]c2ccccc12
  -8, 2.8%[38.3 µM], 0, -2.4, 0, -0.3
#42 CCCCN(C)C(=O)c1[nH]c(C(F)(F)F)nc1-c1ccccc1
  -1, 2.3%, -6, -1.9, -10, -0.4
#43 O=C(CCCOc1ccc(Cl)cc1Cl)N1CCCc2ccccc21
  -11, 1.3%, 28, 0.7, 38, 3.9
#44 CCOCCCNc1c2c(nc3cc(-c4ccc(F)cc4)nn13)CCC2
  -6, 2.2%, -6, -4.6, 5, 1.3
#45 CN(CCc1ccccc1)C1CCCN(S(=O)(=O)c2cccc(F)c2)C1 (stereo not drawn)
  -24, 0.8%, -18, -4.9, -9, -0.2
#46 C[C@H](CCC(=O)OCc1cn(CC(=O)c2ccc(O)cc2)nn1)C1CC[C@H]2[C@@H]3CC[C@@H]4C[C@H](O)CC[C@]4(C)[C@H]3C[C@H](O)[C@]12C (stereo partly drawn)
  -3, 29%, -3, -0.9, 13, 0.0
#47 CC(C)NC(=O)N(C)C[C@H]1Oc2ccc(NC(=O)Nc3ccccc3)cc2C(=O)N([C@H](C)CO)C[C@@H]1C
  -9, 1.7%, 0, -1.2, 1, -0.2
#48 Cc1cc(C(=O)CSc2nnc(-c3ccc(F)cc3)o2)c(C)n1CC1CCCO1 (stereo not drawn)
  -8, 0.3%, -6, 2.4, -6, -0.9
#49 CC(C)COC(=S)Nc1ccccc1
  1, 1.4%, 0, 0.3, 5, -0.7
#50 O=C(COC(=O)c1ccco1)NCCc1ccc(Cl)cc1
  -1, 1.0%, ., 0.9, -2, -0.4
#51 COc1ccc(C2CC(C)=NN2C=O)cc1OC (stereo not drawn)
  13, 0.0%, 8, -2.7, -1, 0.0
#52 O=C(NCC1CCCCC1)C1CCN(C(=O)NC2CCCCC2)CC1
  -10, 0.4%[38.3 µM], 3, -3.3, 3, -0.6
#53 CCOC(=O)Nc1ccc(S(=O)(=O)Nc2nc(C)cc(C)n2)cc1
  -5, 2.2%[38.3 µM], 15, 2.6, 4, -0.2
#54 O=C(CN1C(=O)NC2(CCCC2)C1=O)Nc1ccccc1-c1ccccc1
  -1, 1.0%, 3, -8.3, -1, -0.5
#55 C/C=C/C=C\C(=O)Nc1cccc(C2=NOC3(C2)C[C@@H](C(N)=O)N(C(=O)/C(C)=C/C)C3)c1 (stereo partly drawn)
  -13, 2.5%, -1, -2.2, -14, -0.8
#56 O=C(NNS(=O)(=O)c1ccccc1)c1ccc([N+](=O)[O-])cc1
  6, 3.5%, 1, -2.3, 21, -0.1
#57 COc1ccc(CCC(=O)OCC(=O)NCc2ccccc2)cc1
  -12, 1.4%, -5, -3.7, 2, 1.5
#58 CC(C)NC(=O)COC(=O)CNC(=O)c1cc(Cl)cc([N+](=O)[O-])c1
  6, -1.1%, 5, -3.1, 0, 1.5
#59 CC(C)c1ncc(C(O)c2ccccc2)n1C (stereo not drawn)
  -4, -0.6%, 0, -2.8, -24, -0.4
#60 CCN1C(=O)c2ccc(C(=O)NCc3ccccc3)cc2C1=O
  -12, -0.3%, 2, -1.2, 2, -0.1
#61 Cc1ccccc1NC(=O)CN1C(=O)NC2(CCc3ccccc32)C1=O (stereo not drawn)
  -5, 1.8%, ., -3.4, 0, -0.8
#62 Cc1cc(OCC(=O)Nc2cccc(S(=O)(=O)N3CCCCC3)c2)ccc1Cl
  -1, 0.9%, 5, 9.3, 0, 2.9
#63 COc1cccc(NC(=O)[C@@H]2CCCN2C(=O)[C@@H]2Cc3ccccc3CN2C(=O)OC(C)(C)C)c1
  -6, 0.7%, -1, 3.3, 2, -1.7
#64 COc1ccc(C(CNC(=O)c2ccc(OC)c(S(=O)(=O)N3CCCC3)c2)N2CCCC2)cc1 (stereo not drawn)
  -4, 1.4%, 5, 2.1, -3, -0.1
#65 CC1(C)OC(C)(C)/C(=C/Nc2ccc(O)cc2)C1=O
  ?, 0.8%, -3, ?, -21, -1.4
